# Screening data (PubChem BioAssay)
# NPR1 antag = antagonists of human natriuretic peptide receptor Npr1; P16066; HEK293 hNpr1 GloSensor cGMP, ANP-stimulated luminescence; Potency, µM (top dose mostly 46.3 µM), without a hit: at the top dose activity change, negative = inhibition, most hits filed as inhibitors; hit rate 1.6% among 76,000; active = well fitted inhibition curve with a large enough effect; inconclusive = small, poorly fitted or top-dose-only effect; inactive = no such curve, though single readings can be large or run the other way;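 further: nearly all actives have a fitted effect of over 60% in size; nearly all hits also lower the signal before the agonist is added; a reference antagonist and vehicle were the controls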
# Target sequence (P16066 whole entry, looked up): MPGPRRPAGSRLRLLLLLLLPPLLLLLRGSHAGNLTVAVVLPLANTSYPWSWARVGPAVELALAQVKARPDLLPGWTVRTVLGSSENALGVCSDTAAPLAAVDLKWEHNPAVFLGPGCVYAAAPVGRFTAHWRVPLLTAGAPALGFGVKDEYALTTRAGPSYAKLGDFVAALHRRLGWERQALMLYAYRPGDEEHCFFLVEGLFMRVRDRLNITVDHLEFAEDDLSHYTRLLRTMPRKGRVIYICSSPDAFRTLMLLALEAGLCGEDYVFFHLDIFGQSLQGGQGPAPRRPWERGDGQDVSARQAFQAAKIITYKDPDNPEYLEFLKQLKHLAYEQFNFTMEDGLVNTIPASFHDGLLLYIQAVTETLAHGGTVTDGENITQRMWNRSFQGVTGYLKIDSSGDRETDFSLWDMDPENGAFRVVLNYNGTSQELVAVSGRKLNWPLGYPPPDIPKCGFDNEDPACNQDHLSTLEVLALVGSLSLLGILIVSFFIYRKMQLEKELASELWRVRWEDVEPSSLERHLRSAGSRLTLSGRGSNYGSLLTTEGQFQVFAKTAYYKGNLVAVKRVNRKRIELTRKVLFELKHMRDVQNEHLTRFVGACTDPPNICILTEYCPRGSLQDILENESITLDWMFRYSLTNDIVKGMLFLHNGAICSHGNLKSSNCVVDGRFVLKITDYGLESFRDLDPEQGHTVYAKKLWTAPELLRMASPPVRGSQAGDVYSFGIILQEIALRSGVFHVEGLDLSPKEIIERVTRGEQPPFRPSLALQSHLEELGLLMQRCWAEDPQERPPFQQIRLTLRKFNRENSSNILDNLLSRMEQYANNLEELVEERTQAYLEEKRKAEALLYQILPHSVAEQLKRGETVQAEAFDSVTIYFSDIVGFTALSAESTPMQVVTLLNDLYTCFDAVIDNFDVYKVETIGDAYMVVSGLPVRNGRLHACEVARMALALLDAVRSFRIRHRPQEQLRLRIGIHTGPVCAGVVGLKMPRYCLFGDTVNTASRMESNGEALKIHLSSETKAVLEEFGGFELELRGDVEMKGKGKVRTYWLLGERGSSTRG
#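 HEK293 cells stably expressing human Npr1 and cGMP GloSensor pGS-40F, loaded 2 h with 2% GloSensor reagent, given compound 30 min at room temperature. Luminescence read before and 20 min after 0.1 nM hNppA.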
# The depositor's hits bear a star; ? = inconclusive; [ ] = remark or other dose. On the % scale 0 is the no-effect control and ±100 the full control effect; potency means the concentration at half of the fitted maximal effect. Only part of the results is shown; count on the stated rates, not on these rows.
SMILES,NPR1 antag
CC(C)CN1Cc2ccccc2-n2ccnc2C12CCN(C(=O)c1ccc(F)cc1)CC2,2.3%
O=[S+]1([O-])NCC2(CCN(Cc3ccccn3)C2)Nc2ccccc21 (stereo not given),-2.0%
COc1ccc(C(=O)N2[C@H]3CC[C@@H]2c2cnc(-c4ccccc4)nc2C3)c(OC)c1,-30.3%
CNCc1cn(C[C@H]2C[C@@H]3CCN2C[C@@H]3C(=O)NC2CCCCC2)nn1,7.2%[70.6 µM]
Cc1ccc2c(n1)N(C)[C@H](CO)CCN(CC(C)(C)C)C2,3.7%[70.6 µM]
Cc1ccccc1-c1ccc2n(c1=O)C[C@H]1C[C@@H]2CN(C(=O)Nc2cccc(F)c2)C1,8.2%[70.6 µM]
O=C1NC2(CCCN(Cc3cccnc3)C2)Oc2ccccc21 (stereo not given),1.7%[70.6 µM]
COc1ccccc1CC(=O)N1CC2(CCN(C)CC2)c2cc(OC)c(OCc3ccccc3)cc21,5.2%
COc1cc2c(cc1OC1CCCC1)NC(=O)C21CCN(Cc2ccccc2)CC1,-14.4%[70.6 µM]
O=C(NCc1ccccc1)[C@H]1CN2CCC1C[C@@H]2Cn1cc(-c2ccccc2)nn1 (stereo not given in full),-0.6%[70.6 µM]

# Continued; it opens with the 2 that closed the last part.
SMILES,NPR1 antag
COc1cc2c(cc1OC1CCCC1)NC(=O)C21CCN(Cc2ccccc2)CC1,-14.4%[70.6 µM]
O=C(NCc1ccccc1)[C@H]1CN2CCC1C[C@@H]2Cn1cc(-c2ccccc2)nn1 (stereo not given in full),-0.6%[70.6 µM]
CS(=O)(=O)N1CCC2(C1)N=C(c1cccnc1)C(=O)N2 (stereo not given),3.5%[70.6 µM]
CC(C)C(=O)N1[C@H]2CC[C@@H]1c1cnc(-c3ccc(F)cc3)nc1C2,22.4µM*
Cc1ccccc1C(Cn1ccnc1-c1cnc[nH]1)N(C)C (stereo not given),-1.0%
O=C(O)c1cn(Cc2ccccc2F)nn1,7.6%
O=C(NC1CCCC1)N1[C@H]2CC[C@@H]1c1cncnc1C2,2.7%
CC[C@H]1CN2CC[C@H]1C[C@@H]2CNC(=O)c1ccc(C(F)(F)F)cc1,-9.6%[70.6 µM]
Cn1nc(C2CCCCC2)cc1[C@H]1CN2CC[C@H]1C[C@@H]2CNS(=O)(=O)c1ccccc1,1.4%
COc1ccc(-c2cn(C[C@H]3C[C@@H]4CCN3C[C@@H]4C(=O)NC3CC3)nn2)cc1,-7.5%[70.6 µM]
CSc1cccc(NC(=O)NC[C@H]2C[C@@H]3CCN2C[C@@H]3CN(C)CCc2ccccn2)c1,-3.0%
CN1CC[C@H]2CN(c3cc(NCCO)ncn3)C[C@@]2(C(=O)O)C1,-5.6%
CC(C)NC(=O)NC[C@H]1C[C@@H]2CCN1C[C@@H]2CN1CCSCC1,2.9%[70.6 µM]
CN(Cc1ccccc1)Cc1cn(C[C@H]2CC3CCN2C[C@@H]3C(=O)NCc2ccc(F)cc2)nn1 (stereo not given in full),2.9%
Cn1nc(C(=O)NCC2CCOCC2)c2ccccc21,-0.4%
O=C(Cc1cccc(F)c1)N1[C@H]2CC[C@@H]1c1cnc(-c3ccccc3)nc1C2,-1.1%
COc1ccc(NC(=O)NC[C@H]2C[C@@H]3CCN2C[C@@H]3c2cc(-c3ccccc3)nn2C)cc1,-6.2%
CN(C)C(=O)[C@H]1CN2CC[C@H]1C[C@@H]2Cn1cc(COc2ccccc2)nn1,3.7%[70.6 µM]
COc1cc2c(cc1OCc1ccccc1)N(C(=O)COc1ccccc1C(N)=O)CC21CCN(C)CC1,4.4%
Cn1nc(-c2ccc(F)cc2)cc1[C@H]1CN2CC[C@H]1C[C@@H]2CNC(=O)Nc1ccccc1,-7.6%[70.6 µM]
O=C(NC[C@H]1C[C@@H]2CCN1C[C@@H]2CN1C[C@@H]2C[C@H](C1)c1cccc(=O)n1C2)c1ccc(C(F)(F)F)cc1,7.1%
COc1ccc(-c2cc([C@H]3CN4CC[C@H]3C[C@@H]4CNC(=O)Nc3cccc4ccccc34)n(C)n2)cc1OC,2.8%
CN(CCc1ccccn1)C[C@H]1CN2CC[C@H]1C[C@@H]2CNC(=O)Nc1ccccc1,-1.1%[70.6 µM]
O=C(c1cccs1)N1C[C@@H]2C[C@H](C1)c1c(-c3cncnc3)ccc(=O)n1C2,3.0%[70.6 µM]
Cn1nc(-c2ccccc2)cc1[C@H]1CN2CC[C@H]1C[C@@H]2CNC(=O)N1CCOCC1,0.4%[70.6 µM]
Cn1nc(-c2cccs2)cc1[C@H]1CN2CC[C@H]1C[C@@H]2CNCc1ccccn1,2.4%[70.6 µM]
COc1ccc(-c2cc([C@H]3CN4CC[C@H]3C[C@@H]4CNC(=O)c3cccs3)nc(C)n2)cc1OC,0.4%
Cn1nc(CN2CCOCC(CO)C2)c2c(Cl)cccc21 (stereo not given),-10.2%
CNc1ncc(C(=O)N2C[C@H]3COc4ccccc4C[C@@]3(C(=O)O)C2)cn1,0.3%
CC[C@H]1CN2CC[C@H]1C[C@@H]2CNC(=O)COCC(=O)O,-0.9%[70.6 µM]
COCCNC(=O)[C@H]1CN2CCC1C[C@@H]2Cn1cc(-c2ccc(-c3ccccc3)cc2)nn1 (stereo not given in full),9.1%
Cc1ccc([C@H]2CN(C(=O)c3cc(C(C)C)on3)[C@@H]3C4CCN(CC4)[C@H]23)cc1,-0.5%

# Part of the list above in another layout.
SMILES	NPR1 antag
CC(C)NC(=O)NC[C@H]1C[C@@H]2CCN1C[C@@H]2CN1CCSCC1	2.9%[70.6 µM]
CN(Cc1ccccc1)Cc1cn(C[C@H]2CC3CCN2C[C@@H]3C(=O)NCc2ccc(F)cc2)nn1 (stereo not given in full)	2.9%
Cn1nc(C(=O)NCC2CCOCC2)c2ccccc21	-0.4%
O=C(Cc1cccc(F)c1)N1[C@H]2CC[C@@H]1c1cnc(-c3ccccc3)nc1C2	-1.1%
COc1ccc(NC(=O)NC[C@H]2C[C@@H]3CCN2C[C@@H]3c2cc(-c3ccccc3)nn2C)cc1	-6.2%
CN(C)C(=O)[C@H]1CN2CC[C@H]1C[C@@H]2Cn1cc(COc2ccccc2)nn1	3.7%[70.6 µM]
COc1cc2c(cc1OCc1ccccc1)N(C(=O)COc1ccccc1C(N)=O)CC21CCN(C)CC1	4.4%
Cn1nc(-c2ccc(F)cc2)cc1[C@H]1CN2CC[C@H]1C[C@@H]2CNC(=O)Nc1ccccc1	-7.6%[70.6 µM]
O=C(NC[C@H]1C[C@@H]2CCN1C[C@@H]2CN1C[C@@H]2C[C@H](C1)c1cccc(=O)n1C2)c1ccc(C(F)(F)F)cc1	7.1%
COc1ccc(-c2cc([C@H]3CN4CC[C@H]3C[C@@H]4CNC(=O)Nc3cccc4ccccc34)n(C)n2)cc1OC	2.8%
CN(CCc1ccccn1)C[C@H]1CN2CC[C@H]1C[C@@H]2CNC(=O)Nc1ccccc1	-1.1%[70.6 µM]
O=C(c1cccs1)N1C[C@@H]2C[C@H](C1)c1c(-c3cncnc3)ccc(=O)n1C2	3.0%[70.6 µM]
Cn1nc(-c2ccccc2)cc1[C@H]1CN2CC[C@H]1C[C@@H]2CNC(=O)N1CCOCC1	0.4%[70.6 µM]
Cn1nc(-c2cccs2)cc1[C@H]1CN2CC[C@H]1C[C@@H]2CNCc1ccccn1	2.4%[70.6 µM]
COc1ccc(-c2cc([C@H]3CN4CC[C@H]3C[C@@H]4CNC(=O)c3cccs3)nc(C)n2)cc1OC	0.4%
Cn1nc(CN2CCOCC(CO)C2)c2c(Cl)cccc21 (stereo not given)	-10.2%
CNc1ncc(C(=O)N2C[C@H]3COc4ccccc4C[C@@]3(C(=O)O)C2)cn1	0.3%

# Going on with the list.
SMILES,NPR1 antag
COc1ccc(CC(=O)N2CCC3(C2)C(=O)Nc2ccc(OC)cc23)c(Cl)c1 (stereo not given),-2.7%
Cc1cccc(CC(=O)N2CC(N(Cc3ccccc3)C3CCOCC3)C2)c1,-4.3%
COc1cc2c(cc1OC1CCCC1)NC(=O)C21CCN(c2nccs2)CC1,-18.0%[70.6 µM]
COc1ccc2c(c1)C1(CCN(C(=O)c3ccccc3C)C1)C(=O)N2 (stereo not given),3.0%
O=C1NC2(CCN(Cc3ccncc3)C2)OCc2ccccc21 (stereo not given),14.8%[70.6 µM]
CC(=O)c1cccc(NC(=O)NC[C@H]2C[C@@H]3CCN2C[C@@H]3c2cc(-c3ccc(F)cc3)nc(C)n2)c1,-11.5%
O=C1CS(=O)C2(CCNCC2)N1c1ccccc1 (stereo not given),0.7%
COc1cc2c(cc1OC1CCCC1)NC(=O)C21CCN(c2ccc(C#N)cn2)CC1,-1.7%[70.6 µM]
CC[C@H]1CN2CC[C@H]1C[C@@H]2CNCc1ccc(-c2ccccc2)cc1,-16.4%[70.6 µM]
COc1ccc(S(=O)(=O)NC[C@H]2C[C@@H]3CCN2C[C@@H]3CN2CCOCC2)cc1,-2.2%[70.6 µM]
O=C(NCc1ccco1)[C@H]1CN2CCC1C[C@@H]2Cn1cc(CO)nn1 (stereo not given in full),0.9%[70.6 µM]
C#CCN(C)C[C@H]1CN2CC[C@H]1C[C@@H]2CNC(=O)c1ccc(C(F)(F)F)cc1,-0.3%[70.6 µM]
C=C[C@H]1CN2CC[C@H]1C[C@@H]2CNS(=O)(=O)c1ccc2ccccc2c1,0.8%[70.6 µM]
O=C1NC2(CCN(Cc3cccnc3)C2)OCc2ccccc21 (stereo not given),9.7%[70.6 µM]
O=C(Cc1ccc2c(c1)OCO2)N1CCN(Cc2ccccc2)CC(O)C1 (stereo not given),-1.3%
COc1ccc(S(=O)(=O)N2C[C@@H]3C[C@H](C2)c2c(-c4ccccc4F)ccc(=O)n2C3)cc1,2.5%
COc1ccc([C@@H]2CN(C(=O)c3sccc3C)[C@@H]3C4CCN(CC4)[C@@H]32)cc1,1.9%
CC(C)N1C(=O)OCC12CCN(Cc1cccnc1)C2 (stereo not given),0.8%[70.6 µM]
CN1CCNc2cc(Nc3ccncc3)ncc2C1,6.8%[70.6 µM]
Cc1nc(N)nc(N2CC[C@@H]3CC[C@H](C2)N3C)c1CCC(=O)O,3.2%
Cc1nc(-c2cccs2)cc([C@H]2CN3CC[C@H]2C[C@@H]3CNC(=O)C2CC2)n1,-4.6%[70.6 µM]
O=C(NC1CCCCC1)[C@H]1CN2CC[C@H]1C[C@@H]2Cn1cc(-c2ccccc2)nn1,5.4%[70.6 µM]
O=C(NCc1ccc(F)cc1)[C@H]1CN2CC[C@H]1C[C@@H]2Cn1cc(-c2ccccc2)nn1,2.3%[70.6 µM]
COc1cc2c(cc1OCc1ccccc1)N(C(=O)C1CCC(C)CC1)CC21CCN(C)CC1 (stereo not given),-3.4%
COc1ccc(CN2C[C@@H]3C[C@H]2C(=O)Nc2ccccc2O3)cn1,-1.2%[70.6 µM]
CN(C)CC(=O)Nc1ccc2n(c1=O)C[C@H]1C[C@@H]2CN(C(=O)c2ccc(F)cc2)C1,0.7%[70.6 µM]
COc1cccc(C(=O)N2CCC3(CC2)c2nccn2-c2ccccc2CN3C)c1OC,-29.2%
Cc1nc(CCN)no1,0.0%
Cn1cc(CN2CCN3C(=O)N(c4ccccn4)C[C@H]3C2)cn1,-3.1%[70.6 µM]
COc1ccc([C@@H]2CN(C(=O)Cc3nonc3C)[C@@H]3C4CCN(CC4)[C@@H]32)cc1,0.5%
COc1ccc(-c2cc([C@H]3CN4CC[C@H]3C[C@@H]4CNC(=O)CCCC(=O)O)n(C)n2)cc1,-0.7%
COc1cc2c(cc1OCC1CC1)NC(=O)C21CCN(c2ncc(C(C)C)cn2)CC1,6.1%[70.6 µM]
CCNC(=O)NC[C@H]1C[C@@H]2CCN1C[C@@H]2c1cc(-c2ccc(F)cc2)nn1C,-5.1%[70.6 µM]
COc1cccc(Nc2cc3c(cn2)CN(C)CCN3C)c1,1.4%[70.6 µM]
O=C(O)c1cn(Cc2cccc(C(F)(F)F)c2)nn1,0.4%
COCCOCC(=O)N1CCC2(CC1)c1nccn1-c1ccccc1CN2CC(C)C,-14.2%
O=C(Nc1ccc2n(c1=O)C[C@H]1C[C@@H]2CN(C(=O)NC2CCCCC2)C1)c1ccccn1,0.2%
COc1cccc(CC(=O)N2CCC3(CC2)NCc2ccccc2-n2ccnc23)c1,-3.8%
COCCNC(=O)[C@H]1CN2CCC1C[C@@H]2Cn1cc(-c2cccc(N)c2)nn1 (stereo not given in full),0.3%[70.6 µM]
CC[C@H]1CN2CC[C@H]1C[C@@H]2COC(=O)Nc1ccccc1,1.4%[70.6 µM]
CC(C)N1C[C@@H]2OCC(=O)N(CC3CC3)[C@@H]2C1,-1.8%[70.6 µM]
CCC(CC)c1cc([C@H]2CN3CC[C@H]2C[C@@H]3CNC(=O)c2cccs2)nc(-c2ccncc2)n1,?
CC(C)(C)c1ccc(-c2cn(C[C@H]3CC4CCN3C[C@@H]4C(=O)Nc3ccccc3)nn2)cc1 (stereo not given in full),1.1%
COc1ccc2c(c1)C1(CCN(C(=O)NCCC(C)C)C1)C(=O)N2 (stereo not given),2.5%
CC(C)(C)C(=O)N1CC[C@@H](CC(=O)O)[C@@H](CCN2C[C@@H]3C[C@H](C2)c2cccc(=O)n2C3)C1,-0.2%
COc1cc2c(cc1OCc1ccncc1)NC(=O)C21CCN(c2ncccn2)CC1,0.4%[70.6 µM]
COc1cccc(Nc2cc3c(cn2)CN(C)CCN3)c1,-17.5%[70.6 µM]
COc1cc2c(cc1OCc1ccccc1)NC(=O)C21CCN(Cc2ccccn2)CC1,5.3%[70.6 µM]
C#C[C@H]1CN2CC[C@H]1C[C@@H]2CNS(=O)(=O)CCC,-5.6%[70.6 µM]
CC(=O)c1ccc(NC(=O)NC[C@H]2C[C@@H]3CCN2C[C@@H]3CN(C)Cc2ccccc2)cc1,1.3%[70.6 µM]
